Vaccinia inh: blocks a specific stage of Vaccinia orthopoxvirus infection; Vaccinia-infected cells, mCherry/Venus stage reporter fluorescence; active compounds read low; some inactives read as strong as hits; activity change (mCherry), % (no concentration beside the values); 0.01% of 89,000 active;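 active means mCherry past -33% and 40 or more points under the early reporter, replicates agreeing; inconclusive means past -33% without that gap or agreement; tested in A549 cells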;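 further: scaled between vehicle wells and reference inhibitor wells; 23 nL library stock went into each well; one replicate is shown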
Vaccinia inh Venus: recorded beside Vaccinia inh, whose call it bears; activity change (Venus), %; measured here: Venus reporter, other viral stage;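 negative = less Venus signal; first of two replicates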
* = called active by the depositor; u = inconclusive; x = no result given; & = joins results of further samples. Only part of the results is shown (hit frequency here may not be typical).

SMILES | Vaccinia inh | Vaccinia inh Venus
C[C@@H]1CN([C@@H](C)CO)C(=O)c2cc(NS(=O)(=O)c3cn(C)cn3)ccc2O[C@H]1CN(C)Cc1ccc(Oc2ccccc2)cc1 | 17 | 3
C[C@@H]1CN([C@@H](C)CO)C(=O)c2cc(/C=C/c3ccccc3)cnc2O[C@@H]1CN(C)C(=O)c1ccccc1 | -6 | -10
C[C@H](CO)N1C[C@H](C)[C@H](CN(C)S(=O)(=O)c2ccc(F)cc2)Oc2cc(Br)ccc2S1(=O)=O | u | x
COc1cccc(NC(=O)C[C@H]2CC[C@@H]3[C@H](COc4ccc(NC(=O)C5CC5)cc4C(=O)N3C)O2)c1 | -30 | -24
COc1cccc(NC(=O)Nc2ccc3c(c2)OC[C@H](C)NC[C@H](C)[C@@H](OC)CN(C)C3=O)c1 | 25 | 5
C[C@H]1CN([C@@H](C)CO)S(=O)(=O)c2ccc(C3=CCCC3)cc2O[C@H]1CN(C)Cc1cncnc1 | 12 | 1
C[C@@H]1CN([C@H](C)CO)C(=O)c2cc(NS(=O)(=O)c3ccc(F)cc3)ccc2O[C@H]1CN(C)Cc1ccc(C(=O)O)cc1 | 10 | -4
C[C@@H]1CN([C@H](C)CO)C(=O)Cc2cc(NS(=O)(=O)c3cn(C)cn3)ccc2O[C@H]1CN(C)Cc1ccc(Oc2ccccc2)cc1 | -17 | -1
CCN1CC(=O)N2[C@H](C1)[C@@H](c1ccc(-c3ccccc3F)cc1)[C@@H]2CO | 10 | 10
COc1ccccc1-c1ccc2c(c1)O[C@H](CN(C)Cc1ccc3c(c1)OCO3)[C@@H](C)CN([C@H](C)CO)S2(=O)=O | u | x
COc1cccc(S(=O)(=O)N(C)C[C@H]2Oc3ncc(C#CC(C)C)cc3C(=O)N([C@@H](C)CO)C[C@@H]2C)c1 | u | x
CS(=O)(=O)N1CC(=O)N2[C@H](CO)[C@H](c3ccc(Br)cc3)[C@@H]2C1 | 12 | 18
N#Cc1cccc(-c2ccc(C3[C@H]4CNC[C@@H]3N4C(=O)Nc3ccccc3F)cc2)c1 (stereo partly drawn) | -7&-22 | -21&-16
CCC(=O)Nc1ccc2c(c1)C(=O)N(C)[C@H]1CC[C@@H](CC(=O)NC3CCCC3)O[C@@H]1CO2 | -8 | -1
C[C@H](CO)N1C[C@H](C)[C@H](CN(C)Cc2ccc(Oc3ccccc3)cc2)Oc2c(NC(=O)C3CCOCC3)cccc2C1=O | 12 | -1
C[C@@H]1CN([C@H](C)CO)C(=O)c2cc(C#Cc3ccccc3F)cnc2O[C@@H]1CN(C)C(=O)C1CCOCC1 | 0 | -5
C[C@@H]1CN([C@H](C)CO)C(=O)Cc2cc(NC(=O)C3CC3)ccc2O[C@H]1CN(C)Cc1ccc2c(c1)OCO2 | 13 | 9
Cc1ccc(S[C@]2(C(=O)NC(C)C)CC(=O)N(C(C)C)[C@@H]2c2ccc(CO)cc2I)cc1 | -6 | 3
CCC(=O)N1CC2(CCN(C(=O)Nc3c(C)noc3C)CC2)c2c([nH]c3cc(OC)ccc23)[C@H]1CO | 6 | -2
Cc1noc(C)c1NC(=O)N(C)C[C@@H]1OCCCC[C@H](C)Oc2ccc(NC(=O)NC(C)C)cc2C(=O)N([C@@H](C)CO)C[C@@H]1C | 3 | -4
COc1ccc(CN(C)C[C@H]2Oc3ccc(NS(=O)(=O)c4ccc(C)cc4)cc3C(=O)N([C@@H](C)CO)C[C@@H]2C)cc1 | -8 | -11
CN(C)CC(=O)N1CCCCN2[C@@H](CO)[C@@H](c3ccc(-c4ccccc4)cc3)[C@@H]2C1 | -19 | -11
CO[C@H]1CN(C)C(=O)c2cc(NC(=O)C3CC3)ccc2OC[C@H](C)N(CC2CCCC2)C[C@@H]1C | -12 | -6
Cc1ccc(S(=O)(=O)Nc2cccc3c2O[C@@H](CN(C)Cc2ccccc2)[C@H](C)CN([C@H](C)CO)C3=O)cc1 | -2 | -4
C[C@H](NC(=O)C[C@H]1C[C@@H]2c3cc(NC(=O)C4CCC4)ccc3O[C@@H]2[C@H](CO)O1)c1ccccc1 | 12 | 14
O=C(N[C@@H]1CC[C@H](CCn2cc(C3(O)CCCC3)nn2)O[C@@H]1CO)C1CCCC1 | -5 | 6
COCCNC(=O)[C@@H]1[C@@H](CO)[C@@H]2Cn3c(ccc(C4=CCCCC4)c3=O)[C@H]1N2C(=O)C1CCCC1 | 13 | -2
COCC#Cc1ccc([C@@H]2[C@H]3CN(C(=O)Nc4ccc(F)cc4)CC(=O)N3[C@H]2CO)cc1 | 23 | 8
COc1ccc(S(=O)(=O)N(C)C[C@@H]2Oc3c(NS(=O)(=O)c4cccs4)cccc3C(=O)N([C@H](C)CO)C[C@@H]2C)cc1 | -6 | -10
Cc1ccc(S(=O)(=O)Nc2cccc3c2O[C@@H](CN(C)C(=O)Nc2ccc4c(c2)OCO4)[C@H](C)CN([C@@H](C)CO)C3=O)cc1 | 3 | 11
O=C(Nc1ccc(F)cc1)N1CC(=O)N2[C@H](C1)[C@@H](c1ccc(-c3cccc(F)c3)cc1)[C@@H]2CO | u | x
COCC(=O)N(C)C[C@H]1Oc2cc(C3=CCCCC3)ccc2S(=O)(=O)N([C@H](C)CO)C[C@H]1C | -11 | -7
C[C@H](CO)N1C[C@H](C)[C@@H](CN(C)C(=O)Nc2cccc3ccccc23)Oc2c(NC(=O)c3cnccn3)cccc2C1=O | 12 | 14
O=C(C[C@H]1CC[C@@H]2[C@H](COC[C@H](O)CN2Cc2cc(F)ccc2F)O1)NCc1ccccc1 | -1 | -9
CCCC(=O)N1C[C@H]2[C@@H](c3ccccc31)[C@@H](CO)N2C(=O)Nc1ccc(F)cc1 | 1 | -4
C[C@H](CO)N1C[C@H](C)[C@@H](CN(C)S(=O)(=O)c2ccc(Cl)cc2)OCCCC[C@H](C)Oc2ccc(NC(=O)Nc3cccc4ccccc34)cc2C1=O | 14 | 12
COc1ccc(-c2cn(CC[C@H]3CC[C@H](NC(=O)c4cnccn4)[C@H](CO)O3)nn2)cc1 | 2 | 10
CNC(=O)C[C@H]1CC[C@@H]2[C@H](COC[C@H](O)CN2Cc2ccccc2F)O1 | 9 | 2
CCCNC(=O)Nc1ccc2c(c1)C(=O)N(C)C[C@@H](OC)[C@H](C)CN(C(C)=O)[C@@H](C)CO2 | 13 | 18
C[C@@H]1CN([C@@H](C)CO)C(=O)c2cc(NC(=O)C3CC3)ccc2O[C@H]1CN(C)Cc1ccc(C(=O)Nc2ccccc2N)cc1 | -4 | -9

Six of these compounds in a different format:
Every second line gives: Vaccinia inh | Vaccinia inh Venus
> CN(C)CC(=O)N1CCCCN2[C@@H](CO)[C@@H](c3ccc(-c4ccccc4)cc3)[C@@H]2C1
→ -19 | -11
> O=C(N[C@@H]1CC[C@H](CCn2cc(C3(O)CCCC3)nn2)O[C@@H]1CO)C1CCCC1
→ -5 | 6
> Cc1ccc(S(=O)(=O)Nc2cccc3c2O[C@@H](CN(C)Cc2ccccc2)[C@H](C)CN([C@H](C)CO)C3=O)cc1
→ -2 | -4
> CCCC(=O)N1C[C@H]2[C@@H](c3ccccc31)[C@@H](CO)N2C(=O)Nc1ccc(F)cc1
→ 1 | -4
> COCC#Cc1ccc([C@@H]2[C@H]3CN(C(=O)Nc4ccc(F)cc4)CC(=O)N3[C@H]2CO)cc1
→ 23 | 8
> COc1ccc(S(=O)(=O)N(C)C[C@@H]2Oc3c(NS(=O)(=O)c4cccs4)cccc3C(=O)N([C@H](C)CO)C[C@@H]2C)cc1
→ -6 | -10

Compound profiles, from the list above. Order of values: Vaccinia inh, Vaccinia inh Venus
COc1ccc(S(=O)(=O)N(C)C[C@@H]2Oc3c(NS(=O)(=O)c4cccs4)cccc3C(=O)N([C@H](C)CO)C[C@@H]2C)cc1 is entered as -6, -10
COc1ccc(CN(C)C[C@H]2Oc3ccc(NS(=O)(=O)c4ccc(C)cc4)cc3C(=O)N([C@@H](C)CO)C[C@@H]2C)cc1 is entered as -8, -11
COCC#Cc1ccc([C@@H]2[C@H]3CN(C(=O)Nc4ccc(F)cc4)CC(=O)N3[C@H]2CO)cc1 is entered as 23, 8
C[C@H](NC(=O)C[C@H]1C[C@@H]2c3cc(NC(=O)C4CCC4)ccc3O[C@@H]2[C@H](CO)O1)c1ccccc1 is entered as 12, 14

Next section:
SMILES | Vaccinia inh | Vaccinia inh Venus
CCC(=O)N1CCCCN2[C@H](C1)[C@H](c1ccc(C#CCOC)cc1)[C@@H]2CO | 24 | 20
COc1ccc(CN(C)C[C@H]2Oc3ccc(NC(=O)Nc4c(C)noc4C)cc3C(=O)N([C@@H](C)CO)C[C@H]2C)cc1 | 9 | 3
O=C1CN(S(=O)(=O)c2ccccc2)C[C@H]2[C@@H](c3ccc(Br)cc3)[C@H](CO)N12 | -6 | -12
C[C@H](CO)N1C[C@H](C)[C@H](CN(C)Cc2ccc(C(F)(F)F)cc2)Oc2c(NC(=O)c3nc4ccccc4s3)cccc2C1=O | u | x
CCCC(=O)N1CCC2(CC1)CN(C(=O)C1CCCCC1)[C@@H](CO)c1[nH]c3cc(OC)ccc3c12 | 5 | 3
Cc1ccc(S(=O)(=O)N[C@H]2C=C[C@H](CC(=O)NCc3ccncn3)O[C@H]2CO)cc1 | 2 | 16
C[C@H](CO)N1C[C@H](C)[C@@H](CN(C)Cc2ccncc2)Oc2ccc(NC(=O)Nc3cccc4ccccc34)cc2CC1=O | -21 | -15
C[C@@H]1CCCCO[C@@H](CN(C)Cc2ccc(C(F)(F)F)cc2)[C@@H](C)CN([C@H](C)CO)C(=O)c2cc(NC(=O)Nc3ccc(F)cc3)ccc2O1 | 11 | 8
CC(C)C[C@@H]1COCn2nncc2CCCC(=O)N1 | 16 | 21
C[C@@H]1CN([C@H](C)CO)S(=O)(=O)c2ccc(C#CCN(C)C)cc2O[C@H]1CN(C)S(C)(=O)=O | 3 | -4
CCC(=O)Nc1ccc2c(c1)C(=O)N(C)[C@H]1CC[C@H](CC(=O)NC3CCCC3)O[C@@H]1CO2 | 11 | 4
CCN(C[C@H]1[C@H](c2ccccc2)[C@@H](CO)N1C(=O)COC)S(C)(=O)=O | 13 | 4
COc1ccccc1-c1ccc([C@H]2[C@H](CO)N3CCCCN(S(=O)(=O)c4cn(C)cn4)C[C@@H]23)cc1 | u | x
O=C(CN1CCOCC1)NC[C@@H]1[C@@H](c2ccccc2)[C@@H](CO)N1CC1CC1 | 5 | -1
CO[C@@H]1CC[C@H]2CCN(C)C(=O)CCCN(C)C(=O)c3cc(C#N)ccc3OC[C@H]1O2 | 21 | 13
O=C(C[C@@H]1CC[C@H](NC(=O)c2ccc3c(c2)OCO3)[C@@H](CO)O1)NCc1ccc(F)cc1 | -4 | -13
CCCNC(=O)N1C[C@H](C)[C@@H](OC)CN(C)C(=O)c2cc(NS(=O)(=O)CC)ccc2OC[C@@H]1C | -2 | -5
C[C@@H]1CN([C@H](C)CO)C(=O)Cc2cc(NC(=O)Nc3ccc4c(c3)OCO4)ccc2O[C@@H]1CN(C)C(=O)NC1CCCCC1 | 21 | 15
C[C@@H]1CN([C@H](C)CO)C(=O)Cc2cc(NC(=O)Nc3ccc(F)cc3)ccc2O[C@H]1CN(C)Cc1ccc(-c2ccccc2)cc1 | -9 | -4
C[C@@H]1CN([C@@H](C)CO)C(=O)Cc2cc(N(C)C)ccc2O[C@@H]1CN(C)C(=O)Nc1ccc(F)cc1 | 14 | 9
CC(C)C#Cc1cnc2c(c1)C(=O)N([C@@H](C)CO)C[C@H](C)[C@H](CN(C)C(=O)Nc1ccccc1F)O2 | 5 | 3
O=C(c1ccccn1)N1CC[C@H]2[C@H](CO)Nc3ccc(Br)cc3[C@H]21 | 7 | 13
CCCNC(=O)N(C)C[C@H]1Oc2cc(-c3cccnc3)ccc2S(=O)(=O)N([C@H](C)CO)C[C@@H]1C | 7 | 2
C[C@@H]1CN([C@H](C)CO)C(=O)c2cc(NS(=O)(=O)c3ccccc3)ccc2O[C@@H](C)CCCCO[C@@H]1CN(C)C(=O)NC1CCCCC1 | -11 | -13
CCCC(=O)N1CC2(C1)CN(C(=O)c1ccc(F)cc1)[C@H](CO)c1[nH]c3cc(OC)ccc3c12 | 12 | -3
CC(=O)N1CC(=O)N2[C@H](CO)[C@@H](c3ccc(-c4ccncc4)cc3)[C@@H]2C1 | 6 | -3
C[C@@H]1CN([C@@H](C)CO)C(=O)Cc2cc(NS(=O)(=O)c3ccc(Cl)cc3)ccc2O[C@@H]1CN(C)S(=O)(=O)c1ccc(Cl)cc1 | -25 | -4
COc1ccc(NC(=O)Nc2ccc3c(c2)C(=O)N([C@@H](C)CO)C[C@@H](C)[C@@H](CN(C)C(=O)CCCN(C)C)OCCCC[C@@H](C)O3)cc1 | 25 | 6
C[C@@H]1CN([C@H](C)CO)S(=O)(=O)c2ccc(C#Cc3ccncc3)cc2O[C@H]1CN(C)C(=O)c1ccncc1 | u | x
CCCC(=O)Nc1ccc2c(c1)C(=O)N(C)C[C@@H](OC)[C@@H](C)CN(S(=O)(=O)c1cn(C)cn1)[C@H](C)CO2 | 11 | 7
C[C@@H]1CN([C@H](C)CO)C(=O)c2cc(C3=CCCCC3)cnc2O[C@H]1CN(C)C(=O)C1CCOCC1 | 20 | 6
N#C[C@@H]1[C@H](c2ccccc2C2=CCCCC2)[C@H](CO)N1C(=O)Nc1ccccc1F | -27 | -18
CNC[C@@H]1Oc2cc(C#C[C@H](C)O)ccc2S(=O)(=O)N([C@H](C)CO)C[C@H]1C | 9 | 8
COc1ccc(NC(=O)N(C)C[C@H]2Oc3ccc(NS(C)(=O)=O)cc3C(=O)N([C@H](C)CO)C[C@@H]2C)cc1 | 22 | 9
Cc1cccc(NC(=O)Nc2ccc3c(c2)C(=O)N(C)[C@H]2CC[C@@H](CC(=O)NCc4ccccc4Cl)O[C@@H]2CO3)c1 | -4 | 6
CO[C@H]1CN(C)C(=O)c2cc(NS(C)(=O)=O)ccc2OC[C@@H](C)N(C(=O)C2CCCCC2)C[C@@H]1C | 2 | 3
C[C@@H]1CN([C@@H](C)CO)S(=O)(=O)c2ccc(C#C[C@@H](C)O)cc2O[C@H]1CN(C)C(=O)CC1CC1 | 8 | 13
CCCC(=O)N1CC2(C1)CN(CC1CC1)[C@@H](CO)c1[nH]c3cc(OC)ccc3c12 | 16 | 11
